# High-throughput results from PubChem.
# BasE inh – BasE siderophore enzyme inhibitors, primary screen, biochemical, Acinetobacter baumannii ATCC 17978, fluorescence polarization | purified BasE, fluorescence polarization binding displacement | inhibition, % (concentration not given with the values) | 84,000 tested, 0.1% active | AID 485350, 2010;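 active = both replicates above 25% with normal brightness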;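 note: 0% = negative plate control signal and 100% = positive plate control signal; stock transfer was 100 nL into about 30 µL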
# LANA-nucl inh – inhibitors of KSHV LANA-nucleosome binding, primary screen, biochemical, fluorescence polarization, FITC-LANA1-23, chicken nucleosomes | 51,000 tested, 0.3% active | z-score (no concentration beside the values) | FITC-LANA1-23 / chicken nucleosome fluorescence polarization; stronger effect = lower value;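 active = both repeat wells score below -2 in polarization z-score versus plate sample wells, excluding overly bright wells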;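 note: 100 nL library stock added to about 30 µL; numbers are from one replicate; some results filed as inactive read as strong as hits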
#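 Assay system: FITC-LANA peptide and chicken nucleosomes; input: 240 nM purified chicken nucleosomes (480 nM peptide binding sites), final; also added: 50 nM FITC-LANA1-23 probe; medium: TEN-BT buffer, pH 7.5; doses: pin-transferred compound, 100 nL; times: 10–45 min, room temperature; technique: fluorescence polarization; replication: duplicates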
# Numbers without * were called inactive; . = no result given; & = joins results of further samples. Not all compounds are listed. The share of hits here may be higher or lower than overall.
canonical_smiles	LANA-nucl inh	BasE inh
O=C(Cn1nnc(-c2cccnc2)n1)NCC1CCCO1 (configuration not stated)	-0.13	3.4
CCOc1ccc(N2CC(C(=O)Oc3ccc4c(C)cc(=O)oc4c3)CC2=O)cc1 (configuration not stated)	.	0.1
Cc1ccc(C(=O)CC2(O)C(=O)Nc3ccccc32)o1 (configuration not stated)	.	-1.2
O=C1CC(NS(=O)(=O)c2cccnc2)CN1c1ccccc1 (configuration not stated)	0.86	2.0
COc1cn(-c2ccccc2)nc1C(=O)Nc1ccc2nc(C)sc2c1	.	-2.9
Cc1onc(-c2c(Cl)cccc2Cl)c1C(=O)N(C)C	.	0.2
Cn1c(=O)c(=O)n(C)c2cc(S(=O)(=O)N3CCOc4ccccc43)ccc21	0.78	1.7
C=CS(=O)(=O)c1ccc(Oc2ccc(S(=O)(=O)C=C)cc2)cc1	-0.011	3.4
CC(C)(C)c1cc(-c2ccc(Cl)cc2)c(C#N)c(N)n1	-0.04	.
Cn1cccc1CNCC(O)c1ccccc1 (configuration not stated)	-0.8	-0.7
O=C(COc1ccc(Cl)cc1)N1CCCCC1	-0.19	-1.3
O=C(COC(=O)CSc1nnc(-c2ccccc2F)n1-c1ccccc1)Nc1nnc(-c2ccccc2)o1	.	0.0
CCC(C)(CC(=O)O)CC(=O)Nc1cc(C(F)(F)F)cc(C(F)(F)F)c1 (configuration not stated)	.	0.0
O=C(c1ccccc1)N1CCN(C(=O)C2CC3C=CC2C3)CC1 (configuration not stated)	.	0.5
Cc1cccc(N2CCN(C(=O)/C=C3\Sc4ccccc4NC3=O)CC2)c1C	-0.3	-0.5
CC1=C(C#N)C(c2cc(Br)ccc2O)C(C#N)=C(C)N1	0.21	1.4
O=C(Cc1ccccc1)c1ccc(Br)cc1	.	3.8
O=C(OCc1c(F)cccc1Cl)c1ccc(Cl)cc1	.	-0.7
C(=N\N1CCN(c2ccccn2)CC1)/c1ccco1	1.1	-1.1
Cn1cnc(S(=O)(=O)N(Cc2ccccc2)Cc2ccccc2N2CCC(C(=O)O)CC2)c1	.	-0.1
Cc1ccccc1NC(=O)CCC1COc2ccccc2O1 (configuration not stated)	-1.7	2.6
CCOC(=O)C1CCN(C(=O)[C@H](Cc2ccccc2)N2Cc3ccccc3C2=O)CC1	-0.27	4.2
Cn1cc(S(=O)(=O)c2ccccc2)c(=O)c2cc(F)ccc21	1.8	0.0
COC(=O)C1C(c2ccc(OC)cc2)c2c([nH][nH]c2=O)CC1(C)O (configuration not stated)	-1.3	0.5
CC(C)n1cc(-c2nc(C(C)(C)C)cs2)c(=O)n(Cc2ccccc2)c1=O	.	-0.7
CCOC(=O)C(CC)Sc1nnc(-c2c[nH]c3ccccc23)n1CCOC (configuration not stated)	-1.5	0.4
COc1cc(C)ccc1OCC(=O)NN1C(C)CCCC1C (configuration not stated)	.	1.4
CC(=O)Nc1ccc(NC=C(C#N)C#N)cc1	.	1.0
COC(=O)c1ccccc1NC(=O)CNc1cc(OC)c(OC)cc1C	.	0.7
CN(C(=O)CSc1nnc(Nc2ccccc2)s1)C1CCS(=O)(=O)C1 (configuration not stated)	.	-3.1
COc1ccc(CN(C)CC(=O)NC(=O)Nc2ccc(C)cc2C)cc1	.	1.9
CCOC(=O)Cc1csc(/C(=N/O)C(N)=O)n1	.	0.6
CC(C)CCN1C(=O)C2(NN(CCO)C(=Nc3ccccc3)S2)c2ccccc21 (configuration not stated)	.	0.1
Cc1ccc(-c2cc(NC(=O)COC(=O)C3=NNC(=O)CC3)n(-c3ccccc3)n2)cc1	.	0.3
N#C/C(=C/c1ccccc1)c1cccc(C#N)c1	0.59	-0.1
Cc1oc(C(=O)O)cc1CSc1ccccc1C(=O)O	-0.67	-0.2
O=C(CCOc1ccccc1)NCC(c1ccco1)N1CCCCC1 (configuration not stated)	.	2.3
NC(=O)NC(=O)CC1S/C(=N/N=C2\CSC(=O)N2)NC1=O (configuration not stated)	-0.2	0.5
Cc1nnc(SCC(=O)c2c[nH]c3ccccc23)n(N)c1=O	.	1.4
CCOc1ccccc1NC(=O)NCc1ccccc1	-1.9	1.4
CC(=O)N1CCc2cc(S(=O)(=O)NC(CC(C)C)C(=O)N3CCN(c4ccc(F)cc4)CC3)ccc21 (configuration not stated)	-0.21	2.1
COc1ccc(N=C2SCC(=O)N2Cc2ccccc2)cc1	-1.1	0.0
CCN(CC)c1ncnc2nc[nH]c12	0.98	.
Cc1ccc(CNc2ccc(O)cc2)s1	-0.72	21
CC(C)(C)C(=O)c1sc(NCc2ccco2)c(C(N)=O)c1N	.	-0.4
O=c1cc(C(F)(F)F)[nH]c2c(Br)cccc12	-0.27	1.0
O=S(=O)(N/N=C/c1ccc2c(c1)OCO2)c1ccc(Cl)cc1	-0.3	-0.4
CN1C(=O)Cc2cc(S(=O)(=O)CCC(=O)N3CCn4c3nc3ccccc34)ccc21	.	0.0
Cc1ccnc(N2CCC(C(=O)NCc3ccc(F)cc3)CC2)n1	-1.2	1.9
NNC(=O)Cc1csc(-c2cccc(-n3cccc3)c2)n1	.	-0.3

# Other structures
canonical_smiles	LANA-nucl inh	BasE inh
Cc1ccccc1CSCC(=O)Nc1sccc1C#N	.	-1.6
O=C1/C(=C/c2cccs2)CS/C1=C/c1cccs1	0.51	0.2
CCc1nc(C)ccc1OCC(=O)N(CC)CC	.	2.2
CCn1c(CSc2ccc3c(c2)OCCCO3)nc2cc(S(=O)(=O)N(C)C)ccc21	.	1.4
CCn1ncc(-c2ccnc3cc(C(=O)O)nn23)c1C	-0.24	-1.0
Cc1nnc(NC(=O)C2CCCN(c3ncccn3)C2)s1 (configuration not stated)	-0.73	-2.4
O=C(CSc1ncc(CO)n1Cc1ccc(Cl)cc1)NC1CCCCC1	-0.94	0.7
CCC(=O)Nc1ccc2nc(SCc3ccc(F)c4ccccc34)sc2c1	.	2.2
O=C(NCn1nc(-c2ccccc2)nc1-c1ccccc1)c1cccnc1	0.024	-0.1
CC(C(=O)O)c1cccc(Oc2ccccc2)c1 (configuration not stated)	-0.073&0.13&0.62&1.3	-1.5&1.7
CS(=O)(=O)c1cccc(S(=O)(=O)c2cccc(S(C)(=O)=O)c2)c1	-1.4	0.6
Nc1c(C(=O)NC2CCCC2)nnn1-c1ccccc1	0.14	2.7
Cc1cc(C(F)(F)F)nc(SCC(=O)NCc2cccc(C(F)(F)F)c2)n1	.	3.4
O=C(CSc1nnc(-c2ccco2)n1-c1ccccc1)NC(=O)c1ccccc1	.	-1.8
COc1ccc2nc(NC(=O)c3ccccc3NS(=O)(=O)c3cccs3)sc2c1	.	-13
COCCN1C(=O)/C(=C/c2cc(OC)c(O)cc2Br)SC1=S	0.22	-28
O=C1c2ccccc2-c2nnc(-c3cccc(OC(F)(F)F)c3)cc21	-0.15	0.8
CN1CCC(N(C)CC(O)COCc2ccccc2Cl)CC1 (configuration not stated)	.	-0.4
CCN(CC)CCN1C(=O)C(O)=C(C(=O)c2sc(C)nc2C)C1c1ccccn1 (configuration not stated)	1.3	-3.6
Cc1cc(C)nc(SCc2cc(=O)c(OC(=O)c3c(-c4ccccc4Cl)noc3C)co2)n1	2.1	-2.5
Cc1ccccc1OCC(=O)OC1CCCN(C)C1 (configuration not stated)	-1.2	0.7
O=S(=O)(NC12CC3CC(CC(C3)C1)C2)c1cccc(C(F)(F)F)c1	.	1.9
O=c1ccn2c(SCc3ccccc3)nnc2[nH]1	0.71	-0.1
Cc1c(Cl)cccc1NC(=O)CCCN1C(=O)CCC1=O	-0.48	1.7
C=CCN=c1scc(-c2ccco2)n1/N=C/c1ccc(C(=O)OC)cc1	.	-6.0
CNc1nc2c([nH]1)c(=O)n(C)c(=O)n2C	-0.11	-1.6
CC(C)[C@H](NC(=O)c1ccco1)C(=O)N(C)Cc1c(F)cccc1Cl	.	2.4
CCOc1nc2cnccc2n(Cc2ccccc2C#N)c1=O	-1.7	2.4
CCn1cc(C(=O)NCc2cccnc2)c(=O)c2cc(S(=O)(=O)N3CCCC3)ccc21	0.27	0.6
COc1ccc(-c2nnc(SCC(=O)N3CC(=O)Nc4ccccc43)o2)cc1OC	.	-1.1
CC(C)=NNC(=O)c1ccccc1	-0.55	1.0
O=C(CC(CC(=O)c1ccccc1)c1cccc2ccccc12)c1ccccc1	.	2.0
COCc1cc(C)nc2sc(C(N)=O)c(N)c12	.	-0.1
CCS(=O)(=O)N1CCN(c2nc(C)nc3sc4c(c23)CCC(C)C4)CC1 (configuration not stated)	0.16	3.8
O=C(CC(=O)c1ccccc1)Nc1ccccc1	.	6.4
C(=NCc1ccccc1)c1cn(-c2ccccc2)nc1-c1cccs1	.	0.3
Nc1c(S(=O)(=O)c2ccccc2)c2nc3ccccc3nc2n1C1CC1	.	4.0
Cc1ccc(/C=C/C(=O)N(Cc2nc3ccccc3c(=O)[nH]2)CC2CCCO2)o1 (configuration not stated)	.	0.9
O=C(/C=C1\NC2(CCCC2)Cc2ccccc21)N1CCOCC1	-0.37	3.0
N#CC1(NCCNC2(C#N)CCCCC2)CCCCC1	.	0.4
C/C(=C\C(=O)C(F)(F)F)NCC1CCCO1 (configuration not stated)	.	2.0
CNC(=S)N(CCN1CCOCC1)Cc1cc2cc(C)c(Cl)cc2[nH]c1=O	1.1	0.2
COc1ccccc1NCC(=O)N/N=C/C=C1/N(C)c2ccccc2C1(C)C	.	4.0
Cc1cc(SCC(N)=O)nc2ccccc12	-0.054	-0.5
COc1ccc(C(=O)C[N+]2=C(C)c3ccc(C)n3CC2)cc1	-0.59	-1.5
CCOc1ccc(C(=O)OCC(=O)N2CCCCC2)cc1OCC	.	1.2
CC(=O)Oc1ccccc1C(=O)NCc1ccc(F)cc1	-0.044	2.6
CON1C(=O)c2ccccc2C1=O	0.38	-1.4
Cc1ccc(S(=O)(=O)NN(C)C)cc1	0.056	0.2
O=C1[C@H](CC[C@H](O)c2ccc(F)cc2)[C@@H](c2ccc(O)cc2)N1c1ccc(F)cc1	-0.099	.

# (further entries)
canonical_smiles	LANA-nucl inh	BasE inh
O=C(NCc1ccco1)C1CCN(c2nccc(C(F)(F)F)n2)CC1	0.49	3.2
CC(NC(=O)c1ccccc1)c1ccc(F)cc1 (configuration not stated)	.	1.2
Cn1cnnc1Sc1ccc(Cl)cc1NC(=O)c1ccc(C#N)cc1	.	1.5
S=C(NCc1ccco1)NC1OCCOC1NC(=S)NCc1ccco1 (configuration not stated)	.	0.5
N#Cc1ccc(CCC(=O)c2cccs2)cc1	.	-1.5
N#Cc1ccccc1NC(=O)c1ccc(N2C(=O)CCC2=O)cc1	-1.2	-1.0
COCCCNC1CCOc2ccccc21 (configuration not stated)	0.33	-0.2
CC1=C(C(=O)Nc2cccc(C(F)(F)F)c2)C(c2ccc3c(c2)OCO3)NC(=O)N1 (configuration not stated)	.	-1.1
CCOc1cc(N2CCOCC2)c(OCC)cc1NC(=O)c1cc(-c2ccco2)nc2ccccc12	.	1.0
O=C(Cc1ccccc1)Nc1ccc(N2CCCC2=O)cc1	-0.5	3.1
Cc1cc(NC(=O)c2cc(C3CC3)on2)no1	-0.73	-1.0
CCOC(=O)c1c(S(=O)(=O)NCc2ccccc2)c(-c2ccccc2)n(-c2ccccc2)c1C	.	0.2
Cc1ccc(C(=O)Nc2ccccc2N2CCCCC2)c(C)c1	0.036	7.7
O=C(COc1ccc2ccc(=O)oc2c1)N1CCc2ccccc21	.	-1.7
CC(C)Cn1cc(NC(=O)N(C)Cc2ccco2)c2ccccc2c1=O	.	-0.2
O/N=C/C1=C(Cl)c2ccccc2CC1	0.66	.
Fc1ccc(N=C(CN2CCCCC2)N2CCCCC2)cc1	0.042	-0.4
O=C(Nc1ccc(C(F)(F)F)cc1)c1ccc2c(c1)CCO2	.	-1.8
CCOC(=O)N1CCC(N/C=C(\C#N)S(=O)(=O)c2ccc(Cl)cc2)CC1	-1	0.1
O=C(Nc1ccc(F)cc1)C1c2ccccc2Oc2ccccc21	.	1.5
CN(C)c1ccc(NC(=O)COC(=O)C2=NNC(=O)CC2)cc1	.	-3.7
CSc1c(C#N)c(-c2ccccc2)nn1CC(=O)NN	.	-2.4
COc1cccc(N2CCN(S(=O)(=O)c3ccc(CN4C(=O)c5cccnc5C4=O)s3)CC2)c1	-0.006	1.0

# Of the compounds above, 3 contain a tert-butyl group.
canonical_smiles	LANA-nucl inh	BasE inh
CC(C)(C)c1cc(-c2ccc(Cl)cc2)c(C#N)c(N)n1	-0.04	.
CC(C)n1cc(-c2nc(C(C)(C)C)cs2)c(=O)n(Cc2ccccc2)c1=O	.	-0.7
CC(C)(C)C(=O)c1sc(NCc2ccco2)c(C(N)=O)c1N	.	-0.4

# Fetched by compound from the list above (four):
canonical_smiles	LANA-nucl inh	BasE inh
N#Cc1ccccc1NC(=O)c1ccc(N2C(=O)CCC2=O)cc1	-1.2	-1.0
CC1=C(C(=O)Nc2cccc(C(F)(F)F)c2)C(c2ccc3c(c2)OCO3)NC(=O)N1 (configuration not stated)	.	-1.1
CCOc1cc(N2CCOCC2)c(OCC)cc1NC(=O)c1cc(-c2ccco2)nc2ccccc12	.	1.0
O=C(Nc1ccc(C(F)(F)F)cc1)c1ccc2c(c1)CCO2	.	-1.8
